High-throughput results from PubChem BioAssay.
Biofilm kill mix = mixtures killing C. albicans biofilm; C. albicans biofilm persisters + clotrimazole, fluorescence viability; primary screen in compound mixtures of four per well; inhibition, % at 7.6 µM; 0.02% of 120,000 active; AID 1242;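 active = inhibition above 30.3% in the primary screen of four-compound pools, then above 30% when the compound was retested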;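 also: compounds exposed to preformed 24 h biofilms for 48 h; the number belongs to the whole pool; some results filed as inactive read as strong as hits; inactives centre near 12; 0% = biofilm with clotrimazole alone and 100% = kill control; retested singly at about 60 µM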
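Assay system: C. albicans biofilms / Medium: RPMI/MOPS medium, pH 7.0 / Schedule: biofilm formation 24 h, compound exposure 48 h, 37 °C / Measured by: Alamar Blue fluorescence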
* hit, by the source's call. Not all compounds are listed (hit frequency here may not be typical).

SMILES | Biofilm kill mix
CCCCN(CCCC)CCCOC(=O)c1ccc(N)cc1 | 8
CC(C)(C)NCC(O)COc1cccc2c1C[C@H](O)[C@H](O)C2 (some centres not stated) | 18
COc1cc(C2Oc3cc(C4Oc5cc(O)cc(O)c5C(=O)C4O)ccc3OC2CO)ccc1O (configuration not stated) | 7
CCCC(=O)O[C@]1(C(=O)COC(C)=O)CC[C@H]2[C@@H]3C[C@H](F)C4=CC(=O)C=C[C@]4(C)[C@@]3(F)[C@@H](O)C[C@@]21C | 1
Cc1c(C)n(Cc2ccccc2)c2ccc(C(=O)OCCN(C)C)cc12 | 6
CC1(C)O[C@@H]2C[C@H]3[C@@H]4C[C@H](F)C5=CC(=O)C=C[C@]5(C)[C@@]4(F)[C@@H](O)C[C@]3(C)[C@]2(C(=O)CO)O1 | 14
CN(C)c1ccc2nc3ccc(=[N+](C)C)cc-3sc2c1 | 15
CC(C)NNC(=O)c1ccncc1 | 5
CCN(CCCCOC(=O)c1ccc(OC)c(OC)c1)C(C)Cc1ccc(OC)cc1 (configuration not stated) | 20
CCCCCCCCCCCCCCCC(O)C(N)CO (configuration not stated) | 0
O=C(c1ccccn1)N(Cc1cccs1)C1(C(=O)NC2CCCCC2)CCCCC1 | -1
Nc1c2ccccc2nc2ccccc12 | 10

Quoted from the listing (4 entries):
SMILES | Biofilm kill mix
CCCC(=O)O[C@]1(C(=O)COC(C)=O)CC[C@H]2[C@@H]3C[C@H](F)C4=CC(=O)C=C[C@]4(C)[C@@]3(F)[C@@H](O)C[C@@]21C | 1
Cc1c(C)n(Cc2ccccc2)c2ccc(C(=O)OCCN(C)C)cc12 | 6
CC1(C)O[C@@H]2C[C@H]3[C@@H]4C[C@H](F)C5=CC(=O)C=C[C@]5(C)[C@@]4(F)[C@@H](O)C[C@]3(C)[C@]2(C(=O)CO)O1 | 14
CN(C)c1ccc2nc3ccc(=[N+](C)C)cc-3sc2c1 | 15

(further entries)
SMILES | Biofilm kill mix
N=c1nc(N2CCCCC2)cc(N)n1O | 14
CCCOc1ccc2nc(NC(=O)OC)[nH]c2c1 | -2
Cc1scc2c1N(C(=O)CN1CCN(C)CC1)c1ccccc1NC2=O | 4
CCCC(=O)O[C@]1(C(=O)CCl)[C@@H](C)C[C@H]2[C@@H]3CCC4=CC(=O)C=C[C@]4(C)[C@@]3(F)C(=O)C[C@@]21C | 9
O=C(O)Cc1cn(-c2ccccc2)nc1-c1ccc(Cl)cc1 | 7

Two entries drawn at random from the list so far, as already listed:
SMILES | Biofilm kill mix
COc1cc(C2Oc3cc(C4Oc5cc(O)cc(O)c5C(=O)C4O)ccc3OC2CO)ccc1O (configuration not stated) | 7
CCCCN(CCCC)CCCOC(=O)c1ccc(N)cc1 | 8

Entries shown so far that contain a carbonyl joined to an NH by a bond outside any ring, in the order listed:
SMILES | Biofilm kill mix
CC(C)NNC(=O)c1ccncc1 | 5
O=C(c1ccccn1)N(Cc1cccs1)C1(C(=O)NC2CCCCC2)CCCCC1 | -1
CCCOc1ccc2nc(NC(=O)OC)[nH]c2c1 | -2
